Assay outcomes from PubChem.
PrP 5UTR inh: suppresses PrP 5' UTR mRNA reporter expression; cell-based PrP 5' UTR mRNA reporter, plate reader; inhibition, % (no concentration beside the values); 340,000 compounds, 0.35% hits; AID 488862;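 active means every replicate at 50% or more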;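 further: 0 = median of the neutral control wells; tested in H4 reporter cells; numbers are from one replicate; inactives centre near -14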
Autofluor counter: flagged as autofluorescent in microsphere protease counterscreen; fluorescence intensity (test concentration not listed); 360,000 compounds, 3.1% hits; compound autofluorescence counterscreen, microsphere flow cytometry; stronger effect = higher value;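 active means at least 3 SD above the mean of all compounds, about 16000 in these data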;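 further: 100 nL of 1 mM stock went into each well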
An asterisk follows results filed as active; & = joins results of further samples. Only part of the results is shown; rates above refer to the full screens.

The first three records, ahead of the listing:
Structure	PrP 5UTR inh	Autofluor counter
NC(CCC(=O)NC(CS)C(=O)NCC(=O)O)C(=O)O (stereo unspecified)	-12	7722
CC1C(=O)OC2CCN3CC4OC4(COC(=O)C(C)(O)C1(C)O)C23 (stereo unspecified)	-4	3842
Cc1ccc(S(=O)(=O)N2CCN(C(=O)CN3CCN(c4ccc(O)cc4)CC3)CC2)cc1	3	3623

The listing, previewed entries included:
Structure	PrP 5UTR inh	Autofluor counter
NC(CCC(=O)NC(CS)C(=O)NCC(=O)O)C(=O)O (stereo unspecified)	-12	7722
CC1C(=O)OC2CCN3CC4OC4(COC(=O)C(C)(O)C1(C)O)C23 (stereo unspecified)	-4	3842
Cc1ccc(S(=O)(=O)N2CCN(C(=O)CN3CCN(c4ccc(O)cc4)CC3)CC2)cc1	3	3623
C[N+](C)(CCOc1ccccc1)Cc1ccccc1	-4	5709
Cc1cc(Cl)ccc1OCC(=O)OCC(=O)NCCNC(=O)COC(=O)COc1ccc(Cl)cc1C	0	3048
C#CCOCCOCCOCCNc1nc(N2CCN(C(=O)CCCCCCCCCCNC(=O)Cn3cc(C[C@@H](C)O)nn3)CC2)nc(N2CCN(C(=O)CCCCCCCCCCNC(=O)[C@H](CO)n3cc(CCCSC)nn3)CC2)n1	-22	3528
O=[N+]([O-])c1cc(S(=O)(=O)Oc2ccccc2)ccc1Cl	-22	5659
COc1ccc(Cn2cc(CN3CCS(=O)(=O)N(Cc4ccc(-c5cccc(Cl)c5)cc4)C(C)C3=O)nn2)cc1 (stereo unspecified)	10	2911
CN(C)CCNC(=O)c1cccc2nc3c(ccc4ccccc43)nc12	-23	3507
CC(C)CC(NC(=O)OCc1ccccc1)C(=O)NC(Cc1ccccc1)C(=O)CCl (stereo unspecified)	-15	3422
O=[N+]([O-])c1cccc(C=NNc2ccc3ccccc3n2)c1O	56*	3484
C=CCC[C@@H](Cc1ccc(F)cc1)C(=O)OC[C@@H]1CCCN1C(=O)[C@@H](CC=C)CC(=O)N[C@@H](CO)Cc1ccccc1	-12	3477
O=C(Nc1ccc(C(=O)N2CCCC2)cc1)C1CCCCC1	-26	3850
O=c1c2ccccc2sc2nc(CCl)nn12	-5	4146
O=C(c1ccc(CNc2c(NC3CCCCC3)c(=O)c2=O)cc1)N1CCc2ccccc21	-4	5944
O=C1N[C@H](Cc2ccccc2)COC(=O)[C@H](Cc2ccc(F)cc2)CC/C=C/C[C@@H]1CC(=O)N(CCO)Cc1ccccc1	-2	2794
O=C(O)c1cc(=O)c2c(OCC(O)COc3cccc4oc(C(=O)O)cc(=O)c34)cccc2o1	0	6032
CCOC(=O)[C@H]1[C@H]2COc3ccc(Cl)cc3[C@@H]2N2C(=O)c3cc(Cl)ccc3NC(=O)[C@@]12C	11	2790
Cc1cccc(-c2sc(Nc3ccccc3)n[n+]2-c2ccccc2)c1	-14	3751
CN1C(CCl)Nc2cc(Cl)c(S(N)(=O)=O)cc2S1(=O)=O (stereo unspecified)	77*	3091
CCOC(=O)[C@H]1[C@H]2COc3ccc(Cl)cc3[C@@H]2N2C(=O)c3cc(F)c(F)cc3NC(=O)[C@@]12C	-6	4311
COc1ccccc1-c1cccc([C@@H]2C[C@H]3[C@H](CON3C)CN2C(=O)C(C)(C)C)c1	2	3139
C[C@@H](OC(=O)c1[nH]cnc1C(=O)N1CCN(C(=O)OC(C)(C)C)CC1)c1ccccc1	-3	4351
CCOC(=O)c1c(C)[nH]c(C(=O)COC(=O)c2cccnc2Cl)c1C	-72	3747
CN(C)S(=O)(=O)c1ccc(NC(=O)Cn2nc(-c3ccc4c(c3)OCCO4)ccc2=O)cc1	-2	2949
C=CC[C@@H](CC(=O)N[C@H](CO)Cc1ccccc1)C(=O)N[C@H](COC(=O)[C@@H](CC=C)CC(=O)OC(C)(C)C)Cc1ccccc1	-17	3908
CSc1ccc(/C=N/NC(=O)c2ccc(-n3cnnn3)cc2)cc1	-22	3245
O=C1C=C(c2ccc(Cl)c(C(F)(F)F)c2)C[C@@H](c2ccc(F)cc2)C1	-24	3634
CC1CCN(c2ccc(/C=N\Nc3nncn3N)cc2[N+](=O)[O-])CC1	-15	2039
C[C@H](CO)N1C[C@H](C)[C@@H](CN(C)Cc2ccncc2)Oc2c(NC(=O)C3CCCCC3)cccc2C1=O	-25	2909

Profiles from above. Screens in order: PrP 5UTR inh	Autofluor counter
O=C1C=C(c2ccc(Cl)c(C(F)(F)F)c2)C[C@@H](c2ccc(F)cc2)C1 in the list: -24	3634
Cc1cccc(-c2sc(Nc3ccccc3)n[n+]2-c2ccccc2)c1 in the list: -14	3751
C[N+](C)(CCOc1ccccc1)Cc1ccccc1 in the list: -4	5709
C[C@@H](OC(=O)c1[nH]cnc1C(=O)N1CCN(C(=O)OC(C)(C)C)CC1)c1ccccc1 in the list: -3	4351
CN(C)CCNC(=O)c1cccc2nc3c(ccc4ccccc43)nc12 in the list: -23	3507

Copied from the list:
Autofluor counter, O=C1C=C(c2ccc(Cl)c(C(F)(F)F)c2)C[C@@H](c2ccc(F)cc2)C1 = 3634
PrP 5UTR inh, COc1ccccc1-c1cccc([C@@H]2C[C@H]3[C@H](CON3C)CN2C(=O)C(C)(C)C)c1 = 2
PrP 5UTR inh, C=CC[C@@H](CC(=O)N[C@H](CO)Cc1ccccc1)C(=O)N[C@H](COC(=O)[C@@H](CC=C)CC(=O)OC(C)(C)C)Cc1ccccc1 = -17
Autofluor counter, CSc1ccc(/C=N/NC(=O)c2ccc(-n3cnnn3)cc2)cc1 = 3245

The results go on:
Structure	PrP 5UTR inh	Autofluor counter
O=S(=O)(SC1=NCCN1)c1ccccc1	-8	4124
C/C(=N\NC(=O)c1ccncc1)c1ccc(N2CCOCC2)cc1	-15	6359
CC(C)(C)OC(=O)C[C@@H]1C/C=C\C[C@H](CC(=O)N[C@H](CO)Cc2ccccc2)C(=O)N[C@@H](Cc2c[nH]c3ccccc23)COC1=O	-13	3650
COc1ccc(CNCCS(=O)(=O)NCc2ccc(OC)cc2)cc1	-26	3727
C[C@@H]1NS(=O)(=O)[C@H]2C[C@@H]3C=C[C@]2(O3)[C@H]1OC(=O)c1ccccc1Br	-19	4084
C=CC[C@@H](CC(=O)N(CCO)Cc1ccccc1)C(=O)N[C@H](COC(=O)[C@@H](CC=C)Cc1ccc(F)cc1)C(C)(C)C	-18	3084
CNC[C@H]1Oc2c(NC(=O)C3CC3)cccc2C(=O)N([C@H](C)CO)C[C@@H]1C	-22	3981
O=C(C[C@@H]1C/C=C/CCCC(=O)O[C@H](c2ccccc2)CNC1=O)NCCO	-24	3880
O=C(C[C@H]1C/C=C\C[C@@H](Cc2ccc(F)cc2)C(=O)OC[C@@H]2CCCN2C1=O)NCCO	-4	3530
CN(CC(=O)Nc1cccc(F)c1)C(=O)c1cccc(S(=O)(=O)N2CCN(c3ccc(F)cc3)CC2)c1	16	3998
O=C(NCO)c1cccnc1	-30	4230
NC(=O)c1c(Br)n(C2OC(CO)C(O)C2O)c2ncnc(N)c12 (stereo unspecified)	16	3744
CCCC(C)Sc1nc2c([nH]1)c(=S)n(C)c(=O)n2C (stereo unspecified)	-5	3003
Cc1ccc2c(c1)[C@H]1[C@H](CO2)[C@H](c2ccccc2)[C@]2(C)C(=O)Nc3ccc(Cl)cc3C(=O)N12	2	3813
Cc1cc(OCc2cn(CC(=O)c3ccc(O)cc3)nn2)ccc1[N+](=O)[O-]	-11	2993
S=C1CC2CCCC(C2)N1 (stereo unspecified)	-10	3931
CC1(C)CCC(=O)N2CC[C@H]3c4cc5ccccc5nc4C[C@@H]1[C@H]32	-102	3914
O=C1CC[C@@H]2CC3(C[C@@H]4CCN1[C@H]24)Nc1ccccc1NC3=NC1CCCCC1 (stereo partly specified)	-10	3373
COc1cc(NC(=S)NN2CCOCC2)cc(OC)c1	-21	3974
COc1cc(N(C)C)ccc1C=c1c2ccccc2n2c1cc(-c1ccccc1)[n+]2C	-24	1971
O=C(C[C@@H]1C/C=C\CCCC(=O)OC[C@@H]2CCCN2C1=O)N[C@H](CO)Cc1ccccc1	-18	3597
O=S(=O)(Nc1ccccc1)N1CCCCC1	-14	3918
N#Cc1ccc(CN2CCN(C(=O)c3ccc(S(=O)(=O)NCc4ccco4)cc3)CC2)cc1	-19	3760
CN1CN(c2ccccc2)C2(CCN(CCCSc3ccccc3NC(=O)/C=C/c3ccccc3)CC2)C1=O	-21	3988
CCN1C[C@@H]2[C@@H]3C(=O)N(Cc4ccccc4)C(=O)[C@@H]3[C@](Cc3ccccc3)(C1=O)N2C(=O)c1ccc(C(F)(F)F)cc1	7	4228
CCCCNc1c(-c2ccc(OC)c(SC(C)CC)c2)nc2ccc(C)cn12 (stereo unspecified)	-4	4404&4553
CC1(C)S[C@@H]2[C@H](NC(=O)[C@H](N)c3ccccc3)C(=O)N2[C@H]1C(=O)OC1OC(=O)c2ccccc21 (stereo partly specified)	-23	4274
COc1c2c(cc3oc(CO[C@@H]4O[C@H](CO)[C@@H](O)[C@H](O)[C@H]4O)cc(=O)c13)O[C@H](C(C)(C)O)C2	2	2847
CCCNC(=O)N1[C@H]2CC[C@@H]1C(C(=O)OC)=C(c1ccc(OC(F)(F)F)cc1)C2	-13	4264
CCCCCCCCn1sccc1=O	4	5323

Going on with the list:
molecule | PrP 5UTR inh | Autofluor counter
C=CC[C@@H](CC(=O)N[C@H](CO)Cc1ccccc1)C(=O)N[C@H](COC(=O)[C@@H](CC=C)Cc1ccc(F)cc1)Cc1c[nH]c2ccccc12 | -16 | 4188
COc1cc(C)c2c(c1OC)C(=O)CC2 | -19 | 3925
CC(C)C[C@H](NC(=O)c1nc[nH]c1C(=O)NCCCCCN)C(=O)OCc1ccccc1 | -18 | 3749
COc1cc2c3cc1Oc1c(OC)c(OC)cc4c1[C@H](Cc1ccc(cc1)Oc1cc(ccc1O)C[C@H]3N(C)CC2)N(C)CC4 | -21 | 4083
COc1ccc(C(=O)O/N=C(\N)c2ccccc2)c(OC)c1 | 34 | 2668
CC(=O)Nc1ccc(SC[C@H](Cc2ccccc2)N2CC[C@@H](O)CCC2=O)cc1 | -18 | 3670
O=C(CN1C(=O)C2CC=CCC2C1=O)Nc1nc(-c2ccc(F)c(F)c2)cs1 (stereo unspecified) | -18 | 4087
Cc1cn(CC(=O)NCCCN2CCCC2=O)c(=O)[nH]c1=O | 7 | 2957

An excerpt from above in order of number of heavy atoms, descending:
molecule | PrP 5UTR inh | Autofluor counter
C=CC[C@@H](CC(=O)N[C@H](CO)Cc1ccccc1)C(=O)N[C@H](COC(=O)[C@@H](CC=C)Cc1ccc(F)cc1)Cc1c[nH]c2ccccc12 | -16 | 4188
O=C(CN1C(=O)C2CC=CCC2C1=O)Nc1nc(-c2ccc(F)c(F)c2)cs1 (stereo unspecified) | -18 | 4087
COc1cc(C)c2c(c1OC)C(=O)CC2 | -19 | 3925

(further entries)
molecule | PrP 5UTR inh | Autofluor counter
COCCn1c(-c2ccc(Br)cc2)csc1=Nc1cccnc1 | 10 | 3238
CC1CCCN(S(=O)(=O)c2cc(C(=O)NCCc3ccc(S(N)(=O)=O)cc3)ccc2Cl)C1 (stereo unspecified) | 1 | 2832
CN(C)c1ccc(C=NNc2ccccn2)c(Cl)c1 | -89 | 3178
C[C@@]12C(=O)N(CC3CCCO3)CC(=O)N1[C@@H]1c3ccccc3OC[C@@H]1[C@@H]2c1ccccc1 (stereo partly specified) | -12 | 3961
Cc1cccc(C(=O)O[C@H]2[C@H](Cc3ccccc3)NS(=O)(=O)[C@H]3CC4C=C[C@]23O4)c1 | -14 | 3927
O=[N+]([O-])c1ccc(Nc2cccc3c2[nH]c2c(-c4ccccc4)nccc23)c([N+](=O)[O-])c1 | -16 | 3367
CCCCN1C(=N)N([C@@H](CCC)CN2CCC[C@H]2CN2C(N)=NC[C@@H]2Cc2ccccc2)C[C@H]1Cc1ccccc1 | -10 | 4335
Cc1nc2c(Br)cc(Br)cc2c(=O)n1-c1ccccc1NC1OCC(O)C(O)C1O (stereo unspecified) | -20 | 2957
O=C(N[C@@H](Cc1ccccc1)C(=O)CCl)OCc1ccccc1 | -3 | 5824
CC[C@@]1(C(=O)OC)N[C@H](CN(C)C(=O)Nc2ccc(C(F)(F)F)cc2)[C@@H]2C(=O)N(Cc3ccccc3)C(=O)[C@@H]21 | -5 | 3590
Cc1ccc(/C=N/NC(=O)c2ccc(-n3cccc3)cc2)o1 | -10 | 5310
CCOC(=O)[C@]12Cc3cc(OC)ccc3[C@H]1N(Cc1ccccc1)C(=O)c1ccccc12 | -15 | 3423
CCC/C(=C1/c2ccccc2C(=O)N1c1ccccc1)c1cnc(OC)nc1 | -11 | 4312
COc1ccccc1-c1oc2ccccc2c1C#CC1(N)CCCCC1 | -8 | 4507
CCOC(=O)[C@@H]1[C@H]2COc3ccc(Br)cc3[C@H]2N2C(=O)N(c3ccc(Cl)cc3)C(=O)[C@]12C | -1 | 3722
N#CC12C(=O)NC(=O)C1(C#N)C21CCCC1 (stereo unspecified) | -23 | 4181
O=C(N/N=C/c1ccco1)c1[nH]ncc1Br | -4 | 4783
CCOc1[nH]c(/N=C/c2ccco2)c(C#N)c1C#N | 0 | 2389
NC1=C(Br)C(=O)c2ncccc2C1=O | 32 | 4119
CCOC(=O)[C@H]1[C@H]2COc3ccc(Br)cc3[C@@H]2N2C(=O)CN(C)C(=O)[C@@]12C | -12 | 3223
OC(CNc1ccnc2cc(Cl)ccc12)CNC1CCCCC1 (stereo unspecified) | -8 | 4142
c1ccc2scnc2c1 | -3 | 4162
C[C@H](CO)N1C[C@H](C)[C@@H](CN(C)S(=O)(=O)c2ccccc2)Oc2ccc(NC(=O)Cc3ccccc3)cc2C1=O | -16 | 4353
Cc1onc(-c2ccccc2)c1C(=O)N[C@@H]1C(=O)N2C1SC(C)(C)[C@@H]2C(=O)O (stereo partly specified) | -19 | 5174
CCN(C(=O)CSc1nnc(-c2ccccc2Cl)n1N)c1c(N)n(Cc2ccccc2)c(=O)[nH]c1=O | 8 | 3085
C[C@H](CO)N1C[C@H](C)[C@@H](CN(C)C(=O)Nc2ccc3c(c2)OCO3)Oc2ccc(NS(=O)(=O)c3ccccc3)cc2C1=O | -22 | 2977
